Assay outcomes (PubChem)
Sa growth 42C – S. aureus growth inhibition. S. aureus RN4220 growth, OD600, 20 h, 42 °C; stronger effect = lower value. relative growth, % (no concentration beside the values). 0.53% of 170,000 active;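 active = growth at 42 °C up to 50% and 20 or more points under that at 30 °C, or under 10% at both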;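 also: 300 nL library stock went into each well; scaled to the means of positive and negative controls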
GIV-Gai inh – inhibitors of GIV GBA-motif binding to rat Galpha-i3; P08753; Galpha-i3/FITC-GIV peptide fluorescence polarization, 90 min; stronger effect = lower value; scaled: aluminum fluoride 0%, vehicle 100%; percent of control (FP), % (no concentration beside the values); 0.42% of 210,000 active;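 active = replicate mean at 85% of control or lower, very high polarization wells dropped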;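 also: wells of about 15 µL received 100 nL stock; the first replicate is given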
Target sequence (P08753 whole entry, looked up): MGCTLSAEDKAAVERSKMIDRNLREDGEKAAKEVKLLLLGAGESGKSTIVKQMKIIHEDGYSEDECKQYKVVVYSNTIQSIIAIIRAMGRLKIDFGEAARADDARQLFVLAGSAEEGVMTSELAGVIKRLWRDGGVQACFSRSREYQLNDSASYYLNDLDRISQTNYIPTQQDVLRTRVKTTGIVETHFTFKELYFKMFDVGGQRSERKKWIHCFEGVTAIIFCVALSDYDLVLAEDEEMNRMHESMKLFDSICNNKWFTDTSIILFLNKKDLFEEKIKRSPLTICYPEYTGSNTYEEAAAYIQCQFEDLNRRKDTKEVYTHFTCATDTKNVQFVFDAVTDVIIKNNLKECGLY
HCMV NEC inh – inhibitors of HCMV UL50-UL53 nuclear egress complex interaction | HTRF UL50-UL53 interaction, normalized percent inhibition | inhibition, % (no concentration beside the values) | 0.15% of 190,000 active | AID 1918969;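 active = both replicates at 50% or more, plus weaker picks with an unusually low signal ratio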;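 also: stock transfer was 100 nL into about 20 µL; 0% = negative control wells and 100% = wells with untagged competitor protein; inactives centre near -12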
Sa growth 42C second temp – recorded beside Sa growth 42C, whose call it bears; relative growth, %; measured here: growth at 30 °C;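 optical density after 20 h as mean of two plates; 100% = untreated growth and lower means inhibition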
An asterisk follows results filed as active; . = not tested or not shown; & = joins results of further samples. The order is random; 0.83% or so of the library scored in one or more.

No. | structure | Sa growth 42C | Sa growth 42C second temp | GIV-Gai inh | HCMV NEC inh
1 | CCCCN(C)CC(O)Cn1cc(/C=C/C(=O)c2ccc(C)cc2)c2ccccc21 (stereo not given) | 84 | 0 | 126 | -24
2 | N#CCc1nn(-c2ccccc2)c(/N=C/c2cc(Cl)cc(Cl)c2O)c1C#N | 104 | 83 | 100 | .
3 | C=CCNC(=O)Nc1c[nH]c2ccccc2c1=O | 91 | 81 | 102 | -20
4 | CSc1ccc(Cl)c(C(=O)OCC(=O)N(C)c2ccccc2)c1 | 107 | 101 | . | 8
5 | CCN(CC)S(=O)(=O)c1cccc(C(=O)Oc2cccc(-c3cnc4ccccc4n3)c2)c1 | 97 | 85 | . | -16
6 | O=C(Nc1ccc(Cl)cc1)c1cnn(-c2ccc(Br)cc2)c1 | . | . | 99 | 6
7 | Cc1noc(-c2ccc(NC(=O)c3ccccc3C)cc2)n1 | . | . | 103 | -9
8 | Cc1c(CCNS(=O)(=O)c2ccc(Br)cc2)c2ccccc2n1Cc1ccccc1 | 92 | 80 | 98&100 | -7
9 | C[C@]12CC=C(C#N)[C@@]1(C)CC=C2C#N | 97 | 94 | 102 | -26
10 | CCCS(=O)(=O)c1ccc2nc(NC(=O)OC)[nH]c2c1 | . | . | 100 | -11
11 | COc1ccc(C2C3=C(CC(C)(C)CC3=O)N(C)C3=C2C(=O)CC(C)(C)C3)cc1 | 113 | 85 | 95 | .
12 | COc1cccc(N2CCN(C(=O)C3CCCN(S(=O)(=O)c4ccc5c(c4)oc(=O)n5C)C3)CC2)c1 (stereo not given) | 108 | 86 | 108 | -19
13 | COc1ccc(OC)c(NC(=O)CC2C(=O)NCCN2C(=O)C(F)(F)F)c1 (stereo not given) | 97&92 | 92&86 | 103&104 | -30
14 | NC(CO)C12CC3CC(CC(C3)C1)C2 (stereo not given) | 94 | 101 | . | 32
15 | CC(C)n1cnc(S(=O)(=O)N2CCCC(C(=O)N3CCN(C4CCCCC4)CC3)C2)c1 (stereo not given) | . | . | 107 | -21
16 | CSc1sc(C(=O)NC(=O)NCc2cccnc2)c(C)c1-c1ccon1 | 91 | 83 | 103 | -117
17 | CC(=O)Nc1ccc(NC(=O)COC(=O)C2CCCCC2)cc1 | 104 | 86 | . | -4
18 | CN(C(=O)c1cc(-c2ccccc2O)on1)c1ccccc1 | 96 | 77 | 106 | -23
19 | CCc1nc(-c2ccc(N3CCN(C(=O)CNS(=O)(=O)c4ccccc4)CC3)cc2)no1 | . | . | 104 | -20
20 | Cc1ccc(C2C(C#N)=C(N)OC(C3CC3)=C2C#N)cc1 (stereo not given) | 117 | 95 | 108 | -35
21 | O=c1c(S(=O)(=O)c2ccc(F)c(Cl)c2)c[nH]c2c(F)cc(Cl)cc12 | . | . | 104 | -5
22 | CCOc1cc(C(=O)NCc2ccc3c(c2)n(C)c(=O)n3C)cc(OCC)c1OCC | 108 | 88 | 101 | .
23 | COc1ccccc1NC(=O)c1nc(-c2ccc(C)cc2)n2c1CCCCC2 | . | . | 107 | 11
24 | Cc1cccc(C(=O)OCC(=O)NC2CCCC(C)C2C)c1 (stereo not given) | 111 | 97 | . | -6
25 | COc1cc(C2NC(=O)NC(C)=C2C(=O)OCc2ccc(C)cc2)cc(Br)c1O (stereo not given) | . | . | 103 | -28

Compound profiles (already shown). Screens in order: Sa growth 42C, Sa growth 42C second temp, GIV-Gai inh, HCMV NEC inh
`Cc1ccc(C2C(C#N)=C(N)OC(C3CC3)=C2C#N)cc1` (stereo not given) across the screens: 117, 95, 108, -35
`CCN(CC)S(=O)(=O)c1cccc(C(=O)Oc2cccc(-c3cnc4ccccc4n3)c2)c1` across the screens: 97, 85, ., -16
`CSc1sc(C(=O)NC(=O)NCc2cccnc2)c(C)c1-c1ccon1` across the screens: 91, 83, 103, -117

Reprinted: compounds 1 to 6
No. | structure | Sa growth 42C | Sa growth 42C second temp | GIV-Gai inh | HCMV NEC inh
1 | CCCCN(C)CC(O)Cn1cc(/C=C/C(=O)c2ccc(C)cc2)c2ccccc21 (stereo not given) | 84 | 0 | 126 | -24
2 | N#CCc1nn(-c2ccccc2)c(/N=C/c2cc(Cl)cc(Cl)c2O)c1C#N | 104 | 83 | 100 | .
3 | C=CCNC(=O)Nc1c[nH]c2ccccc2c1=O | 91 | 81 | 102 | -20
4 | CSc1ccc(Cl)c(C(=O)OCC(=O)N(C)c2ccccc2)c1 | 107 | 101 | . | 8
5 | CCN(CC)S(=O)(=O)c1cccc(C(=O)Oc2cccc(-c3cnc4ccccc4n3)c2)c1 | 97 | 85 | . | -16
6 | O=C(Nc1ccc(Cl)cc1)c1cnn(-c2ccc(Br)cc2)c1 | . | . | 99 | 6

Continued:
No. | structure | Sa growth 42C | Sa growth 42C second temp | GIV-Gai inh | HCMV NEC inh
26 | Cc1ccc2c(c1)c(=O)c1ccccc1n2CCCC(=O)Nc1cc(Cl)ccc1C | 91 | 90 | 111 | -32
27 | Cc1cccc(OCC(=O)Nc2c(C(=O)Nc3cccc(F)c3)oc3ccccc23)c1 | 83 | 91 | 96 | .
28 | O=C(O)c1ccc(Cn2cccn2)o1 | 77 | 95 | 108 | .
29 | CCS(=O)(=O)n1nc(-c2ccccc2)cc1N | 92 | 92 | 105 | .
30 | O=C(Cn1c(SCCOc2ccccc2Cl)nc2ccccc21)N1CCOCC1 | 113 | 83 | 102 | -18
31 | CCOC(=O)c1sc(Br)nc1C | 116 | 86 | 106 | 1
32 | CCOC(=O)Cn1nc[n+]2[nH]c(C)cc(=O)c12 | 103 | 76 | 105 | -4
33 | CNc1nc(-c2cc(C)n(-c3cccc(C(F)(F)F)c3)c2C)cs1 | 80 | 87 | . | -24
34 | CCCCNC(=O)c1sc2nc(C)cc(C)c2c1-n1cccc1 | 83 | 86 | 101 | -21
35 | N[C@@H](C(=O)N[C@@H]1C(=O)N2C(C(=O)O)=C(Cl)CS[C@H]12)c1ccccc1 | -0.9* | -0.4* | . | -31&-4
36 | CCOC(=O)c1c(-c2ccccc2)csc1NC(=O)CSc1cc(-c2ccccc2)nc(C)n1 | . | . | 99 | -15
37 | Cc1cc(C)n2nc(CNC(=O)c3cccc(Cl)c3)nc2n1 | 114 | 87 | 101 | -3
38 | O=C(Nc1ccc(C(F)(F)F)cc1)N1CCC(N2CCCCC2)CC1 | 112 | 90 | 102 | 4
39 | CSc1ncc(Cl)c(C(=O)Nc2c(C(=O)c3ccc(Cl)cc3)oc3ccccc23)n1 | 86 | 90 | 94 | -3
40 | CCCCNC(=O)Cn1c(=O)n(CCCCC(=O)NC2CCCCC2)c(=O)c2ccccc21 | . | . | 100 | -16
41 | CCc1ccc(Nc2cc(C(=O)NCC(OC)OC)c3ccccc3n2)cc1 | 109 | 93 | 103 | .
42 | O=C(CCS(=O)(=O)c1ccccc1)N(Cc1cccnc1)c1nc2ccc(F)cc2s1 | 102 | 99 | 104 | .
43 | CCOC(=O)c1sc(N2N=C(C)CC2=O)nc1C | 82 | 74 | 103 | -19
44 | Cc1ccc2nc(-c3ccccc3)cc(C(=O)Nc3ccccc3)c2c1 | 78 | 90 | 100 | .
45 | Cc1ccc(S(=O)(=O)N(C)C(C)C(O)c2ccccc2)cc1 (stereo not given) | 124 | 90 | . | -22
46 | Cc1ccc(-c2n[nH]c(=O)c3c2CCCC3)cc1S(=O)(=O)Nc1ccc(S(N)(=O)=O)cc1 | . | . | 94 | -16
47 | C/C(=N\NC(=O)C1=NNC(=O)C1C)c1cccs1 (stereo not given) | 98 | 89 | 101 | -59
48 | O=c1oc2cc(S(=O)(=O)NC3CCCC3)ccc2n1Cc1noc(C2CCC2)n1 | . | . | 105 | -19
49 | O=C(CN1C(=O)C2(SCC(=O)N2c2ccccc2)c2ccccc21)Nc1ccccc1C(F)(F)F (stereo not given) | 102 | 102 | 98 | .
50 | Cn1c(=O)c(=O)n(C)c2cc(NC(=O)c3ccccc3Br)ccc21 | 97 | 93 | 104 | -13
51 | Cc1ccc(NC(=O)Cn2nnc(C(=O)NCc3ccc4c(c3)OCO4)c2N)cc1Cl | 84 | 94 | 98 | .
52 | Cc1cccc2sc(NC(=O)CN3CSCC3=O)nc12 | 83 | 99 | . | -13
